Source: PubChem
BJeLR viability – kills HRASV12-expressing BJeLR cells; BJeLR (HRASV12) viability, CellTiter-Glo ATP luminescence, 48 h; reference of the scale not given here; inhibition, % (concentration not given with the values); 300,000 compounds, 0.17% hits; AID 1554;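 active means replicate mean above 50%; inconclusive means above 50% but judged a plate artefact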;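 further: 50 nL library stock added to about 25 µL; numbers are from one replicate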
Sa RN4220 lethal – kills Staphylococcus aureus RN4220; S. aureus RN4220 growth, OD600, 16 h; inhibition, % (no concentration beside the values); AID 1259311; 330,000 compounds, 0.33% hits;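 active means z-score of -3 or lower and OD600 up to 0.18 on both plates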;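 further: plate controls were untreated cells for no effect and reference antibiotic for full effect; stock transfer was 100 nL into about 80 µL; one replicate is shown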
ugtP null kill – kills S. aureus RN4220 lacking UgtP; S. aureus RN4220 ugtP deletion, OD600 growth, 16 h; some inactives read as strong as hits; growth inhibition, % (no concentration beside the values); 330,000 compounds, 0.54% hits; AID 1259309;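 active means z-score under -3 and OD600 up to 0.15 on both plates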;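 further: plate controls were untreated wells for no effect and antibiotic for full effect; wells of about 80 µL received 100 nL stock; the first replicate is given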
Bead autofluor – counter-screen for toxin protease inhibitors: compound fluorescence; 360,000 compounds, 3.1% hits; fluorescence intensity (concentration not given with the values); compound autofluorescence counterscreen, microsphere flow cytometry; hits give high values; AID 624483;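 active means at least 3 SD above the mean of all compounds, about 16000 in these data; inconclusive means too few beads counted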;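 further: 100 nL of 1 mM stock went into each well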
PrP UTR inh – inhibition of PrP 5' UTR reporter expression | inhibition, % (no concentration beside the values) | cell-based PrP 5' UTR mRNA reporter, plate reader | AID 488862 | 340,000 compounds, 0.35% hits;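 active means every replicate at 50% or more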;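 further: 0 = median of the neutral control wells; tested in H4 reporter cells; numbers are from one replicate; inactives centre near -14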
Mtb hypoxia inh – inhibitors of hypoxia-regulated fluorescent reporter in Mycobacterium tuberculosis. 300,000 compounds, 0.1% hits. AID 1159583. M. tuberculosis hypoxia-regulated fluorescent reporter, fluorescence. fluorescence inhibition, % (test concentration not listed);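 active means 35 to 45% if threefold the growth effect, above 45% if 1.5-fold the growth effect; inactive means the rest, general growth blockers included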;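 further: wells of about 50 µL received 100 nL stock; 0% = vehicle wells and 100% = reference inhibitor wells; whole bacteria with a GFP reporter of the hypoxia response; strong numbers were not always called active; many hits fall short of the cut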
Mtb hypoxia inh growth – also measured in Mtb hypoxia inh; calls as there; growth inhibition, %; measured here: M. tuberculosis growth (absorbance);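 0% = vehicle and 100% = reference antibiotic; read after six days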
* hit, by the source's call; ? = inconclusive; / = no result given; & = joins results of further samples.

SMILES	BJeLR viability	Sa RN4220 lethal	ugtP null kill	Bead autofluor	PrP UTR inh	Mtb hypoxia inh	Mtb hypoxia inh growth
Cc1nc2sc(-c3ccccc3)cc2c(=O)n1/N=C/N(C)C	-10	/	/	2502	-66	/	/
CC1CN(C(=O)C(c2ccccc2)c2ccccc2)CC(C)O1 (stereo not given)	3	3.6	-3	25891*	-22	10	13
COCCNC(=O)CC(C)=NNC(=O)C(=O)NC1CCCCC1	/	4.1	-3	/	/	4	-2
C=CCSc1nc2sc(C)c(C)c2c(=O)n1N	0	9.9	-9	2587	-10	6	6
COc1ccc(S(=O)(=O)N2CCOC2CNC(=O)C(=O)NCCc2ccc(OC)c(OC)c2)cc1C (stereo not given)	4	1.9	11	2754	-8	-1	7
CC(=O)c1ccc(N2CCN(C(=O)CCNC(=O)Cn3ccc4ccccc4c3=O)CC2)cc1	-9	7.0	5	4544	-3	-2	3
CCCCNC(=S)N1CCN(c2ccccc2Cl)CC1	3	-2.6	3	9294	-29	12	13
COc1cc(C[C@@H](C)N)c(OC)cc1I	3	/	/	5822	-14	/	/
Cc1ccc(C(=O)Nc2sc3c(c2C(=O)O)CCC(C)C3)o1 (stereo not given)	/	17	-5	8802	-38	10	7
COc1cccc(OC)c1C(=O)N1CCN=C1SCc1cccnc1	-6	-2.3	5	4222	-9	/	/
Fc1ccc(/C=N/Nc2ncnc3nc[nH]c23)cc1F	6	/	/	5749	-26	/	/
CCOC(=O)C1=C(C)N=C2SC=C(C)N2C1c1ccc(OC)cc1 (stereo not given)	-6	6.2	10	5518	-43	9	3
CC(=O)N/C(=C\c1ccccc1)C(=O)Nc1ccccc1C	-3	2.5	-1	2539	-24	4	6
COC(=O)c1ccc(NC(=O)C2CCCN(S(=O)(=O)c3cnc[nH]3)C2)cc1 (stereo not given)	0	-1.9	4	5211	-31	/	/
O=C(c1cc([N+](=O)[O-])cc([N+](=O)[O-])c1)N1CCN(Cc2ccc3c(c2)OCO3)CC1	6	13	5	4318	-10	4	8
Cc1onc(-c2ccccc2)c1C(=O)N1CCN(c2ccc([N+](=O)[O-])cc2)CC1	2	1.7	10	5922	-18	6	0
N#CCCN1CCN(S(=O)(=O)c2ccc(S(=O)(=O)NC3CC3)cc2)CC1	-3	3.3	-2	5936	-12	/	/
O=[N+]([O-])c1cccc(-c2csc(N/N=C/c3cccc(O)c3)n2)c1	-5	/	/	2050	-23	/	/
COc1ccccc1CNC(=O)CSc1nnc2ccc(-c3cccnc3)nn12	1	1.6	1	4234	-17	12	7
COCCOC(=O)C1=C(C)Nc2ncnn2C1c1ccco1 (stereo not given)	-4	1.9	5	3839	-32	4	5
Fc1ccc(NC(=S)Nc2ccccc2OC(F)F)cc1Cl	2	8.7	-29	2607	-30	-5	-5
CN(c1ccc(C(=O)NCc2ccccn2)cc1)S(=O)(=O)c1ccc(Cl)cc1	-1	1.5	0	5962	-7	0	0
CC1(C)CC(=O)C(C2C3=C(CC(C)(C)CC3=O)OC3=C2C(=O)CC(C)(C)C3)=C(O)C1	4	2.6	8	3792	-42	7	6
COc1cccc2c(N/N=C/c3ccco3)cc(C)nc12	-4	/	/	4549	-22	/	/
COc1cc2c(cc1NC(=O)COC(=O)[C@@H](NS(=O)(=O)c1ccccc1)C(C)C)oc1ccccc12	-8	26	-15	8586	-13	7	10
O=C(CNC(=O)OCc1ccccc1)Nc1ccc(Br)cc1C(=O)c1ccccc1Cl	-11	3.2	13	2160	-30	-4	-1
CCCCc1c(CCC)c(=N)c2ccccc2n1C	11	1.7	-7	4035	-6	-3	20
O=C(Nc1cccs1)OCCN1CCN(Cc2ccccc2)CCC1=O	1	5.4	0	4289	-13	9	11
O=C(Nc1nc2ccccc2[nH]1)c1ccccc1OC(F)F	18	7.7	1	5478	1	5	-11
C/C(=N\NS(=O)(=O)c1ccc(C)cc1)c1cccs1	-14	/	/	6645	-17	/	/
OC1(CNCc2ccccc2)C2CC3CC(C2)CC1C3 (stereo not given)	1	1.0	12	4311	-8	20	4
Cc1ccc(CN2C(=O)CCC2C(=O)NCCCN2CCCC(C)C2)cc1 (stereo not given)	-13	-6.8	-3	3446	2	16	4
COc1ccc(OC)c(C(=O)Nc2ccc3[nH]ccc3c2)c1	6	5.2	13	5373	-58	19	2
Cc1n[nH]c(=O)c2c(NC(=O)CSc3ccc(F)cc3)oc(C)c12	5	0.3	5	3855	-10	6	-12
O=C1CN(C(=O)CN2C(=O)NC3(CCCCC3)C2=O)c2ccccc2N1	13	3.4	5	4273	-9	0	7
COC(=O)c1ccc(NC(=O)Cc2ccc(F)cc2)cc1	5	-1.4	4	3083	-8	6	8

Profiles from above.
Cc1ccc(CN2C(=O)CCC2C(=O)NCCCN2CCCC(C)C2)cc1 (stereo not given) is entered as BJeLR viability = -13; Sa RN4220 lethal = -6.8; ugtP null kill = -3; Bead autofluor = 3446; PrP UTR inh = 2; Mtb hypoxia inh = 16; Mtb hypoxia inh growth = 4
C/C(=N\NS(=O)(=O)c1ccc(C)cc1)c1cccs1 is entered as BJeLR viability = -14; Sa RN4220 lethal = /; ugtP null kill = /; Bead autofluor = 6645; PrP UTR inh = -17; Mtb hypoxia inh = /; Mtb hypoxia inh growth = /

(listing goes on)
SMILES	BJeLR viability	Sa RN4220 lethal	ugtP null kill	Bead autofluor	PrP UTR inh	Mtb hypoxia inh	Mtb hypoxia inh growth
CC(NCCOCCOc1ccccc1)c1ccccc1 (stereo not given)	-8	2.3	10	2823	-10	11	10
NC(=O)COC(=O)CC(NC(N)=O)c1ccc(Cl)cc1 (stereo not given)	2	6.0	3	8861	-12	8	5
O=C(Oc1ccc(Cl)cc1)c1ccc(COC(=O)c2cnccn2)cc1	2	3.1	0	9180	-8	3	11
CC(=O)Nc1ccc(SCC(=O)c2cc(C)ccc2C)cc1	0	6.2	-6	8006	-31	-1	13
c1csc(-c2noc(CN3CCN4CCCC4C3)n2)c1 (stereo not given)	4	7.0	0	4121	-25	4	4
COc1ccc(-c2nnn(CC(=O)N(c3cccc(O)c3)C(C)C(=O)NC3CCCC3)n2)cc1OC (stereo not given)	3	6.1	1	3421	-8	2	3
O=C(COC(=O)C1CCC(N2C(=O)C3C4CCC(C4)C3C2=O)CC1)c1ccc(F)cc1 (stereo not given)	-9	3.5	18	3557	-21	8	-6
CCn1c(CC(=O)Nc2ccc(C)c(Cl)c2)nnc1SCCOc1ccc(OC)cc1	7	-5.4	-3	10908	/	1	-2
CC1CCN(Cc2nnnn2CCCC(=O)NC(c2ccccn2)C(F)(F)F)CC1 (stereo not given)	-3	2.6	2	6764	-4	-13	0
COc1cc(OC)cc(C(=O)Nc2ccc(S(=O)(=O)N3CCOCC3)cc2)c1	0	5.3	4	4415	-10	-2	10
CC(OC(=O)Cn1[nH]c(=O)c2ccccc2c1=O)C(=O)Nc1ccc(F)cc1 (stereo not given)	3	0.2	2	?	-15	-5	3
N#CC1=C(N)C(C#N)(C#N)C(c2cccnc2)C2CC(c3ccccc3)CC=C12 (stereo not given)	0	13	-5	2288	14	/	/

By substructure: those above containing a cyano group (2)
SMILES	BJeLR viability	Sa RN4220 lethal	ugtP null kill	Bead autofluor	PrP UTR inh	Mtb hypoxia inh	Mtb hypoxia inh growth
N#CCCN1CCN(S(=O)(=O)c2ccc(S(=O)(=O)NC3CC3)cc2)CC1	-3	3.3	-2	5936	-12	/	/
N#CC1=C(N)C(C#N)(C#N)C(c2cccnc2)C2CC(c3ccccc3)CC=C12 (stereo not given)	0	13	-5	2288	14	/	/

(list continues)
SMILES	BJeLR viability	Sa RN4220 lethal	ugtP null kill	Bead autofluor	PrP UTR inh	Mtb hypoxia inh	Mtb hypoxia inh growth
O=[N+]([O-])c1cccc(S(=O)(=O)N2CCN(S(=O)(=O)N3CCCCCC3)CC2)c1	5	2.9	4	3030	-4	8	5
C[C@@]12C(=O)Nc3cc(F)c(F)cc3C(=O)N1C1c3ccccc3OCC1C2c1ccccc1 (stereo not given in full)	/	-12	8	/	/	-8	9
CC(C)NC(=O)C(=O)NNC(=O)CCc1ccccc1	4	9.1	-1	2149	-31	15	5
CCOC(=O)C1=C(C)Nc2ncnn2C1c1ccc(N(C)C)cc1 (stereo not given)	-3	5.0&4.0	2&-4	3643&11251	-8&-14	11&7	8&9
CN1CCN(C(=O)c2c(O)c3cccc4c3n(c2=O)CCC4)CC1	2	-12	-8	2920	-17	11	8
COc1ccc(C(=O)N2CCc3ccccc32)cc1S(=O)(=O)N1CCOCC1	/	6.0	7	6494	2	3	6
COc1ccccc1NC(=O)COC(=O)[C@@H]1CCCN1C(=O)c1cccs1	-6	0.1	-4	4787	-8	/	/
Cc1ccc(-n2c(/C=C/c3ccccn3)nc3ccccc3c2=O)cc1	3	2.9	9	3580	-4	4	3
O=C(NN=Cc1cn(-c2cccs2)nc1-c1ccccc1)c1ccc(O)cc1	/	-4.8	-8	/	/	1	4
Cc1cccn2c(=O)c(C=NO)c(Nc3ccccc3F)nc12	/	5.4	0	/	/	8	11
O=C(Nc1ccc(OCC(=O)N2CCOCC2)cc1)c1ccccc1F	-2	3.4	1	5127	-28	13	2
COc1ccc2cc(C[C@@H]3CC[C@@H](CNC(N)=O)O3)ccc2c1	/	2.5	8	4001	-28	2	1
Nc1c(C(=O)Nc2ccccc2)sc2nc(-c3cccnc3)ccc12	10	3.3	18	/	/	10	9
Cc1cccc2cc(C#N)c(NCCNC(=O)COc3ccccc3)nc12	-2	6.3	0	3671	-26	-4	3
CCOC(=O)c1ccc(Oc2coc3cc(O)ccc3c2=O)cc1	-1	4.4	11	5788	-21	-9	3
O=C(CSc1nnc(-c2ccco2)o1)N1CCN(c2ccccc2)CC1	-6	-2.6	-14	2802	-5	-1	5
O=S(=O)(NCc1ccc2c(c1)OCO2)c1cccc2nsnc12	4	-4.6	-2	4282	-24	0	-4
C/C(N)=C(/C#N)C(=O)CSc1nc2ccccc2[nH]1	-4	5.6	6	8119	-25	7	6
CCOc1ccccc1N(CC(=O)Nc1ccc2c(c1)OCCO2)S(C)(=O)=O	2	1.7	0	3265	-3	/	/
COc1ccc(CNCCC(c2ccc(F)cc2)c2ccc(OC)cc2)cc1 (stereo not given)	2	-5.3	-18	1900	-34	11	0
CCCCn1c(SCC(=O)N2CC(C)CC(C)C2)nc2cc(S(N)(=O)=O)ccc21 (stereo not given)	-4	1.8	-4	11266	-18	4	9
Cc1cc(C(=O)CS(=O)c2ccc(F)cc2)cc(C)c1OC(=O)N(C)C (stereo not given)	3	1.3	0	3540	-32	-10	-9
CSc1nc(Sc2ccccc2)c2ccccc2n1	-13	-5.7	65	2504	-3	13	9
CCOC(=O)C1(Cc2cccc(OC)c2)CCCN(C(=O)CCN2CCCO2)C1 (stereo not given)	7	1.7	5	7555	-90	10	-2
CC(OC(=O)Cc1ccsc1)C(=O)Nc1ccc(Cl)cn1 (stereo not given)	1	2.8	8	?	0	0	0
O=S(=O)(Nc1cccc(CCc2ccccn2)c1)c1cc(Cl)ccc1Cl	5	10	6	4132	-2	18	11
CCOc1ccc(OCCSc2nc(C)cc(=O)[nH]2)cc1	-3	-1.2	1	2771	-28	/	/
Cc1cc(Br)c2[nH]c3c(c2c1)CCCC3=O	0	9.4	-19	2364	-15	/	/
Cc1[nH]c2ccccc2c1/C=C(\C#N)C(=O)NCC1CCCO1 (stereo not given)	/	-1.3	3	4588	-19	-3	15
COc1cc(C(=O)Nc2cc(-c3nc4cc(C)ccc4o3)ccc2C)cc(OC)c1OC	-8	6.3	-5	2912	-57	7	7
NC(=O)c1ccc(N2CCC(C(N)=O)CC2)c([N+](=O)[O-])c1	11	3.1	-1	3492	-18	5	-4
CCOc1ccc2c(C)cc(=O)oc2c1OCC	-1	8.4	10	2512	-6	9	9
COCCn1nnnc1C(c1ccccn1)N1CCN(c2cccc(C)c2C)CC1 (stereo not given)	-2	-1.6	-8	3052	-19	-2	2
CCOC(=O)c1c(N)sc(-c2ccccc2)c1C	-1	11	50	8214	-42	10	0
CCCCCCCNC(=O)C1(CC2CC(c3ccccc3)=NO2)CCN(C(=O)OC(C)(C)C)CC1 (stereo not given)	/	2.0	-4	3268	-34	5	4
CCn1nc(C)c(CN2CCC(n3nccc3NC(=O)Cc3ccccc3)CC2)c1C	-3	1.0	7	5861	-12	1	0
